miR-21 reporter – raises the signal of a miR-21 reporter; HeLa miR-21 FLuc reporter, luciferase, 48 h; Potency, µM (doses to about 38.3 µM), for the others: at the highest dose reporter change, positive = more light; 340,000 tested, under 10 active; active = well fitted rising curve with a large enough effect; inconclusive = small, poorly fitted or top-dose-only effect; inactive = no such curve, though single readings can be large or run the other way;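 further: % of control where 0% means no effect; miR-21 action dims this reporter so a rising signal means less miR-21 action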
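HeLa cells stably expressing CMV-driven firefly luciferase with a downstream miR-21 binding sequence, endogenously expressing miR-21, were treated with titrations (up to about 40uM final) for 48 hours at 37 degree Celsius. Luciferase luminescence was read after lysis.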
Rango release inh – inhibition of RanGTP-driven Rango-importin beta dissociation; Potency, µM (doses to about 46.1 µM), for the others: at the top dose activity change, negative = inhibition; Biochemical FRET Rango-importin beta, RanGTP-induced dissociation; O95149+P62826; 340,000 tested, 0.071% active; active means falling FRET ratio curve, often poorly fitted, with flat reads before Ran was added; inconclusive means other falling curves, or compound fluorescence or quenching; inactive means flat or rising ratio curve;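 further: potency means the concentration at half of the fitted maximal effect; % of control where 0% means no effect; nearly all actives have a fitted effect of over 45% in size; -100% = wells without RanGTP and RCC1; the record marks most hits as doubtful in a second field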
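Rango FRET biosensor (snurportin-1 IBB flanked by N-terminal EYFP and C-terminal CFP10) at 0.1 uM, with 0.25 uM importin beta in PBS, 1mM DTT, 0.02% Tween-20, 0.1% BSA. 0.6 uM Ran, 2mM GTP and 0.2 uM RCC1 were then added for 45 min at room temperature. Inhibition read as loss of FRET rise.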
Rango-impB inh – Rango-importin beta binding inhibition | Q14974 | Rango CFP/YFP FRET sensor + importin beta, 45 min | Potency, µM (top dose mostly 92.2 µM), inactives show at the top dose inhibition of complex formation | 340,000 tested, 0.031% active; active = rising FRET ratio curve, often small or poorly fitted; inconclusive = mostly compound fluorescence or quenching in the first reads; inactive = flat curves in all reads;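 further: potency means the concentration at half of the fitted maximal effect; 0% = DMSO wells and 100% = buffer wells lacking importin beta; nearly all actives have a fitted effect of over 15% in size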
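Inhibition scored from the CFP 486 nm/YFP 530 nm FRET ratio 45 min after adding 0.125 microM importin beta to 50 nM Rango biosensor preincubated 5 min with compound (room temperature, PBS with DTT, Tween-20, BSA). No-importin wells as positive control.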
GLA inh pH 4.5 – inhibitors of human alpha-galactosidase A at pH 4.5 | AID 1467 | P06280 | activity change, negative = inhibition, % at 105 µM | 230,000 tested, under 10 active | purified enzyme, 4-MU-alpha-Gal fluorescence, pH 4.5; inconclusive = small, poorly fitted or top-dose-only inhibition, or a rising curve; inactive = flat fitted curve, though single readings scatter; no compound was filed as active;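 further: 0% = full activity with enzyme and -100% = basal without enzyme; dose as in the result columns while the protocol names 77 µM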
Target sequence (P06280 whole entry, looked up): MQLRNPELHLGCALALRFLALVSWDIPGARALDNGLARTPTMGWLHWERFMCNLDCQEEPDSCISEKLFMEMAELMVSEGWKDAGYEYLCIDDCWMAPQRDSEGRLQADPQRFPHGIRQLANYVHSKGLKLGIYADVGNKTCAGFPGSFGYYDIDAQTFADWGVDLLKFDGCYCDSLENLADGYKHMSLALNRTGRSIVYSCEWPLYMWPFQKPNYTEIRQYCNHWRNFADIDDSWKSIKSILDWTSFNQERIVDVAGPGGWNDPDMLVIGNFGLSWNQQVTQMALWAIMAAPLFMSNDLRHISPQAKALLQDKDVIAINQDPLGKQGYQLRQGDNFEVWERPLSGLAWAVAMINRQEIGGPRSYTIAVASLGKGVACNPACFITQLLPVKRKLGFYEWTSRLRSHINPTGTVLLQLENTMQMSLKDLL
The depositor's hits bear a star; & = joins results of further samples; [ ] = another dose, or the depositor's remark. An excerpt. The share of hits here may be higher or lower than overall.

For Cn1c(=O)c(S(=O)C2CCCCC2)c(O)c2ccccc21 (configuration not stated) the results were Rango release inh -3% and Rango-impB inh 0.6%.
`CC1CCCC(C)N1c1nnc(NC(=O)c2cc(-c3ccc(Br)cc3)on2)s1` (configuration not stated) gave miR-21 reporter 0%, Rango release inh 21%, Rango-impB inh -0.7% and GLA inh pH 4.5 -8.
Screening CC1CN(Cc2nc3c(c(=O)n(C)c(=O)n3C)n2CCCc2ccccc2)CC(C)O1 (configuration not stated) returned Rango release inh 2% and Rango-impB inh -1.3%.
Screening O=C(COc1ccccc1)NCCc1nc2ccccc2[nH]1 returned miR-21 reporter -1%, Rango release inh 0%, Rango-impB inh 0.8% and GLA inh pH 4.5 4.
Screening O=c1[nH]nc(CNc2cccc(C(F)(F)F)c2)c2ccccc12 returned miR-21 reporter 7%, Rango release inh -6%, Rango-impB inh -0.1% and GLA inh pH 4.5 -6.
For CC(C)c1onc(C(=O)Nc2cccc(Cl)c2)c1[N+](=O)[O-] the results were miR-21 reporter -16%, Rango release inh 16%, Rango-impB inh 6.2% and GLA inh pH 4.5 -5[21.1 µM].
`Cc1ccc(-c2nnc(SCC(N)=O)nc2-c2ccc(C)cc2)cc1` gave miR-21 reporter -6%, Rango release inh 2% and Rango-impB inh -0.1%.
For CCOC(=O)CN(C(=O)COc1nc(C)cc(C)c1C#N)c1cccc(Cl)c1 the results were miR-21 reporter -1%, Rango release inh -3%, Rango-impB inh -0.1% and GLA inh pH 4.5 -10.
Screening O=C(O)c1ccc(N=Nc2c(O)ccc3ncccc23)cc1 returned miR-21 reporter inconclusive, Rango release inh -5% and Rango-impB inh 3.0%.
`CCOc1ccccc1NC(=O)C1CCN(S(=O)(=O)c2c(C)noc2C)CC1` gave miR-21 reporter -7%, Rango release inh 13%, Rango-impB inh -5.3% and GLA inh pH 4.5 2.
`COC(=O)CCNc1n[nH]c(=O)[nH]c1=O` gave miR-21 reporter 4%, Rango release inh 0%, Rango-impB inh -1.5% and GLA inh pH 4.5 -5.
`CCCS(=O)(=O)c1c(S(=O)(=O)CCC)c2c3ccccc3ccn2c1C(=O)OC` gave miR-21 reporter 17%, Rango release inh 3%, Rango-impB inh -0.9% and GLA inh pH 4.5 -14.
`Cc1ccc2c(c1)N(C(=O)CCC(=O)N1CCOCC1)CC(C)O2` (configuration not stated) gave miR-21 reporter -1%, Rango release inh 0% and Rango-impB inh -1.2%.
For CCC(=O)Nc1nc2ccc(NC(C)=O)cc2s1 the results were miR-21 reporter -27%, Rango release inh -1%, Rango-impB inh 0.9% and GLA inh pH 4.5 1.
`Cc1ccc2c(c1)N(C(=O)CCC(=O)Nc1ccccc1Cl)CC(C)O2` (configuration not stated) gave miR-21 reporter 4%&-8%, Rango release inh -10% and Rango-impB inh -1.6%.

Reprinted at random: 3 entries already listed
For Cn1c(=O)c(S(=O)C2CCCCC2)c(O)c2ccccc21 (configuration not stated) the results were Rango release inh -3% and Rango-impB inh 0.6%.
`COC(=O)CCNc1n[nH]c(=O)[nH]c1=O` gave miR-21 reporter 4%, Rango release inh 0%, Rango-impB inh -1.5% and GLA inh pH 4.5 -5.
Screening O=C(COc1ccccc1)NCCc1nc2ccccc2[nH]1 returned miR-21 reporter -1%, Rango release inh 0%, Rango-impB inh 0.8% and GLA inh pH 4.5 4.

Further compounds.
Screening COc1cccc(OCC(=O)O/N=C(\N)c2ccncc2)c1 returned miR-21 reporter -51%, Rango release inh inconclusive and Rango-impB inh inconclusive.
O=S(=O)(Nc1ccc(S(=O)(=O)N2CCOCC2)cc1)c1ccc(Br)cc1 was read as miR-21 reporter -3%, Rango release inh -2% and Rango-impB inh -2.1%.
Cc1cc(=O)[nH]c(SCc2nc3ncccn3c2Br)n1 was read as miR-21 reporter -5%, Rango release inh 4%, Rango-impB inh -2.6% and GLA inh pH 4.5 -8.
For N#Cc1c(-c2ccco2)cc(C2CC2)nc1SCC(=O)c1ccccc1 the results were miR-21 reporter 14%, Rango release inh 1%, Rango-impB inh inconclusive and GLA inh pH 4.5 3.
COC(=O)c1ccccc1NC(=O)CN1CCC(NC(=O)c2ccccc2C)CC1 was read as miR-21 reporter 7%, Rango release inh -3%, Rango-impB inh inconclusive and GLA inh pH 4.5 -2.
CC(=O)NCC(=O)OCC(=O)c1ccc2ccccc2c1 was read as miR-21 reporter -4%, Rango release inh 2%, Rango-impB inh -1.2% and GLA inh pH 4.5 4.
CCN(CC)S(=O)(=O)c1ccc2[nH]cc(C(=O)NCCN3CCCCC3C)c(=O)c2c1 (configuration not stated) was read as miR-21 reporter -1%, Rango release inh 0%, Rango-impB inh -4.2% and GLA inh pH 4.5 7.
N#Cc1ccc(COC(=O)c2ccc3c(=O)[nH]c(CN4CCOCC4)nc3c2)cc1 was read as miR-21 reporter -2%, Rango release inh -4%, Rango-impB inh 3.0% and GLA inh pH 4.5 0.
`CCOC(=O)C1(Cc2cccc(OC)c2)CCCN(CCO)C1` (configuration not stated) gave miR-21 reporter 0%, Rango release inh 22% and Rango-impB inh -4.5%.
O=S(=O)(Nc1ccc(-c2cn3c(n2)SCC3)cc1)c1ccccc1F was read as miR-21 reporter -12%, Rango release inh -9% and Rango-impB inh -2.9%.
CC(=O)Nc1ccc(S(=O)(=O)N(C)CC(=O)OC2CCCCC2=O)cc1 (configuration not stated) was read as Rango release inh inconclusive and Rango-impB inh inconclusive.
`S=C(Nc1ccc(Cl)cc1Cl)NC1CCCCC1` gave miR-21 reporter -6%, Rango release inh -16%, Rango-impB inh -3.9% and GLA inh pH 4.5 3.
`CC[n+]1c(C)sc2sc3ccccc3c21` gave miR-21 reporter 0% and GLA inh pH 4.5 -10.
Screening CC1Cc2ccccc2N1C(=O)CN(C)CC(=O)Nc1ccc(OC(F)(F)F)cc1 (configuration not stated) returned Rango release inh -15% and Rango-impB inh 0.4%.
For O=C1c2ccccc2C(=O)C12OC(c1ccccc1)C1(C(=O)c3ccccc3C1=O)C2c1ccc([N+](=O)[O-])cc1 (configuration not stated) the results were Rango release inh 13% and Rango-impB inh 0.2%.
For Cc1ccn2cc(CCNS(=O)(=O)c3ccc4ccccc4c3)nc2c1 the results were Rango release inh 15% and Rango-impB inh -1.1%.
`CCOC(=O)N1CCN(C(=O)C2CCN(c3ncnc4c3sc3cccc(F)c34)CC2)CC1` gave miR-21 reporter 26%, Rango release inh 11%, Rango-impB inh 2.2% and GLA inh pH 4.5 13.
For Cc1c(O)c(CN2CCCCC2)cc2c1oc(=O)c1ccccc12 the results were miR-21 reporter -14%, Rango release inh -3%, Rango-impB inh -0.8% and GLA inh pH 4.5 -2.
Screening C[C@@H](O)[C@H]1O[C@]2(C)CCC[C@H]1O2 returned Rango release inh -4% and Rango-impB inh 0.0%.
Cn1nnnc1SCC(=O)NNC(=O)c1ccc(Cl)cc1 was read as miR-21 reporter 2%, Rango release inh 1%, Rango-impB inh 1.4% and GLA inh pH 4.5 5.
For Cc1ccc(C)c(S(=O)(=O)N2CCN(C(=O)c3ccncc3)CC2)c1 the results were Rango release inh 0% and Rango-impB inh 1.3%.
`CC(C)C(C)NC(=O)COC(=O)c1cc(S(=O)(=O)N(C)C)ccc1N1CCCC1` (configuration not stated) gave miR-21 reporter -3% and GLA inh pH 4.5 0.
`C=CCn1c(SCC(=O)Nc2cc(NC(C)=O)ccc2OC)nnc1-c1cccnc1` gave miR-21 reporter -4%, Rango release inh -6%, Rango-impB inh -3.2% and GLA inh pH 4.5 -1.
Screening O=[N+]([O-])c1ccccc1S(=O)(=O)Nc1ncccn1 returned miR-21 reporter -8%, Rango release inh 5% and Rango-impB inh 0.2%.
Cc1oc2cc(OC(C)C(=O)O)ccc2c(=O)c1Oc1ccccc1 (configuration not stated) was read as miR-21 reporter -1%, Rango release inh 5%, Rango-impB inh 3.3% and GLA inh pH 4.5 -7.
`CN(C)/C=C(\C#N)C(=O)c1cccnc1Oc1cccc(F)c1` gave miR-21 reporter -8%, Rango release inh -13%, Rango-impB inh -1.3% and GLA inh pH 4.5 -4.
`C/C(=N/OC(=O)c1c(-c2ccccc2Cl)noc1C)c1cnccn1` gave miR-21 reporter 0%, Rango release inh -4%, Rango-impB inh 0.1% and GLA inh pH 4.5 5.
`Cc1ccc(C(=O)OCC(=O)N2CC(C)OC(C)C2)cc1` (configuration not stated) gave miR-21 reporter -4%, Rango release inh -1% and Rango-impB inh -1.2%.
For COc1cccc(NC(=O)CN2CCN(CC(=O)Nc3ccc(F)cc3)CC2)c1 the results were miR-21 reporter 1%, Rango release inh 10% and Rango-impB inh -6.2%.
O=C1CCCC(=O)C1=C1SCCCS1 was read as miR-21 reporter -2%, Rango release inh 14%, Rango-impB inh 0.8% and GLA inh pH 4.5 -23.
Screening CCN(CC(=O)NCc1ccc(F)cc1)C(=O)c1cc2ccccc2o1 returned miR-21 reporter -1%, Rango release inh 14% and Rango-impB inh -5.4%.
CC(=O)Nc1ccc(S(=O)(=O)Nc2ccc3c(c2)OCCO3)cc1 was read as miR-21 reporter 9%, Rango release inh 6%, Rango-impB inh 0.4% and GLA inh pH 4.5 11.
`O=C(COC(=O)c1ccncc1)Nc1cc(Cl)ccc1Cl` gave miR-21 reporter -4%, Rango release inh 1%, Rango-impB inh 1.0% and GLA inh pH 4.5 9.
Screening Cc1c(Cl)cccc1NC(CC(=O)c1ccccc1)C(=O)O (configuration not stated) returned miR-21 reporter -57%, Rango release inh 2%, Rango-impB inh -2.9% and GLA inh pH 4.5 -6.
CCSc1nnc(NC(=O)CSc2c(Cl)cccc2Cl)s1 was read as miR-21 reporter -13%, Rango release inh -9%, Rango-impB inh 0.4% and GLA inh pH 4.5 -8.
For COc1ccc(-n2c(Cc3cccn3C)nnc2SCC(=O)Nc2ccc(F)cc2)cc1 the results were miR-21 reporter -12%, Rango release inh 0%, Rango-impB inh -2.1% and GLA inh pH 4.5 19.
Screening O=C(NC1CC1)c1ccc(CSCc2ccccc2Cl)o1 returned miR-21 reporter -7%, Rango release inh -11% and Rango-impB inh 3.1%.
Screening CCc1nnc(NC(=O)CSc2nnc(CNc3ccc(OC)cc3)n2C)s1 returned miR-21 reporter -1%, Rango release inh 1%, Rango-impB inh -1.5% and GLA inh pH 4.5 inconclusive.
Cc1onc(-c2ccc(Cl)cc2Cl)c1-c1csc(COc2ccccc2)n1 was read as miR-21 reporter 13%, Rango release inh 18%, Rango-impB inh -0.6% and GLA inh pH 4.5 -6.
CC(=O)c1ccsc1-c1c(C)cc2oc(=O)cc(-c3ccccc3)c2c1C was read as Rango release inh 17%, Rango-impB inh 0.3% and GLA inh pH 4.5 -16.
`CCOC(=O)c1c(C)[nH]c(C(=O)COC(=O)c2cc(C)oc2C)c1C` gave Rango release inh -7% and Rango-impB inh -1.6%.
For Cc1cc(=O)oc2cc(OCc3ccc(C(=O)OCC(=O)Nc4ccc(N(C)C)cc4)cc3)ccc12 the results were miR-21 reporter -14%, Rango release inh 4%, Rango-impB inh -2.7% and GLA inh pH 4.5 4.
CC1CC(C)CN(C(=S)Nc2ccc3nc4n(c(=O)c3c2)CCCCC4)C1 (configuration not stated) was read as miR-21 reporter -13%, Rango release inh 2%, Rango-impB inh 0.8% and GLA inh pH 4.5 -3.
Cn1c(COc2ccccc2)nc2ccccc21 was read as miR-21 reporter -57%, Rango release inh 11% and Rango-impB inh -3.1%.
Cc1ccc(-c2cc(C(F)(F)F)nn2-c2ccc(S(N)(=O)=O)cc2)cc1 was read as miR-21 reporter 6%, Rango release inh 2%, Rango-impB inh inconclusive and GLA inh pH 4.5 0.
`O=C(CN1C(=O)NC2(CCCC2)C1=O)Nc1ccccc1N1CCCCC1` gave Rango release inh -3% and Rango-impB inh 2.6%.
For Cc1cc(C)c(C(=O)CN2C(=O)NC3(CCC(C)CC3)C2=O)cc1C (configuration not stated) the results were miR-21 reporter -2%, Rango release inh -12%, Rango-impB inh 0.6% and GLA inh pH 4.5 1.
`CC(=O)Nc1ccc2nc(NC(=O)COc3ccccc3Cl)sc2c1` gave miR-21 reporter -32%, Rango release inh 13%, Rango-impB inh -0.9% and GLA inh pH 4.5 -3.

Assay outcomes (PubChem BioAssay)
